miR-21 FLuc – raises the signal of a miR-21 reporter; Potency, µM (highest dose often 38.3 µM), inactives show at the highest dose reporter change, positive = more light; HeLa miR-21 FLuc reporter, luciferase, 48 h; 340,000 tested, under 10 active; AID 2288; active = well fitted rising curve with a large enough effect; inconclusive = small, poorly fitted or top-dose-only effect; inactive = no such curve, though single readings can be large or run the other way;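 further: % of control where 0% means no effect; miR-21 action dims this reporter so a rising signal means less miR-21 action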
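HeLa cells stably expressing CMV-driven firefly luciferase with a downstream miR-21 binding sequence, endogenously expressing miR-21, were treated with titrations (up to about 40uM final) for 48 hours at 37 degree Celsius. Luciferase luminescence was read after lysis.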
Active calls of the source: *; ? = inconclusive; & = joins results of further samples. These rows are one share of the data; the hit share may differ from the screen's.

SMILES | miR-21 FLuc
Cc1ccc2nc(-c3cccc(NC(=O)c4cccc5c(Cl)cccc45)c3)oc2c1 | -20%
CCOc1cccc(C2c3c(oc4ccccc4c3=O)C(=O)N2c2nc(C)c(C(=O)OC)s2)c1 (stereo unspecified) | -5%
COc1ccc(-c2cc(C(F)(F)F)nc(SCC(=O)N(C)Cc3ccccc3)n2)cc1 | 15%
Cc1cccc(-c2nc3c4ccccc4nc(N4CCN(c5cccc(Cl)c5)CC4)n3n2)c1 | -12%
CC1CN(C(=O)N2CCC(C(=O)NCCC3=CCCCC3)CC2)c2cc(Cl)ccc2O1 (stereo unspecified) | -10%
Cc1ccc(-n2nnnc2CNC(=O)C(C)(C)C)cc1C | -2%
Cc1ccc2onc(CNC(=O)N(C)Cc3ccccc3)c2c1 | -18%
CCc1ccc(C(=O)c2cn(Cc3ccc(F)cc3)c3cc(OC)c(OC)cc3c2=O)cc1 | 25%
Cc1ccc(NC(=O)c2ccc3c(O)c(S(=O)(=O)c4ccccc4)c(=O)[nH]c3c2)cc1Cl | 2%
CCOc1ccc(CNS(=O)(=O)c2c(C(=O)N3CCC(C)CC3)c(C)n(C)c2C)cc1OC | -14%
Cc1ccc(C)c(NC(=O)Cn2c(=O)n(Cc3ccco3)c(=O)c3oc4ccccc4c32)c1 | 0%
CC(C)c1nn2c(=O)cc(COC(=O)c3ccc4c(c3)OCO4)nc2s1 | -7%
CCC(=O)Nc1ccc(C)cc1-c1nc2ccccc2n(CC(=O)c2ccc(C)cc2)c1=O | -1%
CCOC(=O)c1c(NC(=O)C2c3ccccc3Oc3ccccc32)sc(C)c1CC | -10%
CC(C)CCn1c(SCc2c(F)cccc2Cl)nc2ccsc2c1=O | -3%
COc1ccc(N(CC(=O)Nc2ccc(C)c(C)c2)S(=O)(=O)c2ccc(C)cc2)cc1OC | -14%
CN(C)CCNC(=O)CCCN1C(=O)c2cccnc2Oc2ccc(Cl)cc21 | -2%
O=C(Nc1cccc(-c2nc3ccccc3[nH]2)c1)c1c(F)cccc1F | 10%
Cc1cccc(NC(=O)c2ccc(F)c(S(=O)(=O)NCc3ccc4c(c3)OCO4)c2)c1 | 13%
Cc1ccc(C2C=C(c3ccc(F)cc3)Nc3nc(CCCO)nn32)cc1 (stereo unspecified) | 7%
Cc1cccc(N2CCN(C(=O)Cn3cnc4sc(C)c(S(=O)(=O)N5CCN(c6ncccn6)CC5)c4c3=O)CC2C)c1 (stereo unspecified) | 18%
CCOc1ccccc1Nc1ncnc2c1c(-c1ccccc1)cn2-c1ccc(OC)cc1 | 8%
Cc1noc(-c2ccc(-c3noc(-c4ccc(C(F)(F)F)cc4)n3)cc2)n1 | -1%
Cc1ccc2nc(CN3CCN(S(=O)(=O)c4ccc(C)c(C)c4)CC3)oc2c1 | 1%
COC(=O)C1CCN(C(c2ccccc2Cl)c2sc3nc(-c4ccco4)nn3c2O)CC1 (stereo unspecified) | 19%

(cont.)
SMILES | miR-21 FLuc
COc1ccc(-c2nc3ccccc3o2)cc1NC(=O)c1ccc(N2CCC(C)CC2)c([N+](=O)[O-])c1 | -52%
CCOc1ccc(NC(=O)C(Cc2ccccc2)NS(=O)(=O)c2ccc3c(c2)oc(=O)n3C)cc1 (stereo unspecified) | -10%
COc1cc(NS(=O)(=O)c2ccc3c(c2)CCCN3C(C)=O)cc(OC)c1OC | 13%
CCN(Cc1ccccc1)Cc1c(O)ccc2oc(C)c(C(=O)Nc3ccc(C)cc3C)c12 | 27%
CCN1CCN(C(c2cccc(F)c2)c2c(O)cc(C)n(Cc3ccco3)c2=O)CC1 (stereo unspecified) | 4%
CNC(=O)c1c(NC(=O)c2nc(SCc3ccc(C)cc3)ncc2Cl)sc2c1CCCC2 | -1%
CCOC(=O)c1c(C)[nH]c(C)c1S(=O)(=O)N1CCCC(C(=O)NCc2cccc(C)c2)C1 (stereo unspecified) | 0%
O=C(NCc1cccs1)c1ccc(Cn2c(SCc3ccc(F)cc3)nc3cccnc32)cc1 | 5%
Cc1ccc(C)c(NC(=O)c2ccc3c(c2)CCN3S(C)(=O)=O)c1 | -18%
Cc1ccc(CSC2=Nc3ccccc3C3=NC(CC(=O)NCc4cccs4)C(=O)N23)cc1 (stereo unspecified) | 5%
CCc1cccc(C)c1NS(=O)(=O)c1ccc(-n2cccn2)cc1 | 0%
CCN1C(=NCCc2c[nH]c3ccccc23)N[C@@H](c2ccccc2)C(C(=O)OC)=C1C | 15%&11%
COc1ccc(OCC(=O)NCc2ccc3c(c2)CCN3C(=O)c2ccccc2)cc1 | ?
COc1cc(CN(C(=O)c2ccccc2F)C2CCS(=O)(=O)C2)cc(OC)c1OC (stereo unspecified) | -6%
Cc1ccc(-c2nc(C)c(CCNC(=O)c3ccco3)s2)cc1 | -40%
CCOC(=O)c1nnc2c(-c3ccc(Cl)cc3)c(C)nn2c1C | -16%
CCOC(=O)c1c(NC(=O)CSc2cn(CCNC(=O)c3c(F)cccc3F)c3ccccc23)sc2c1CCC2 | 11%
CCCCNC(=O)c1c(-c2ccccc2)c(-c2ccccc2)nn(C)c1=O | 12%
COc1cc(Cl)c(S(=O)(=O)NCCc2c(C)[nH]c3c(C)cccc23)cc1Cl | -1%
COc1ccc(C(=O)CCC(=O)Nc2cc(C)ccc2C)cc1 | -2%
CCc1noc(-c2ccc(NC(C)c3ccccc3)c([N+](=O)[O-])c2)n1 (stereo unspecified) | -3%
CCCS(=O)(=O)N1CC(=O)N(c2ccccc2C)C(C)(C(=O)NC2CCCCC2)C1 (stereo unspecified) | -2%
Cc1cccc(NC(=O)Cn2c(=O)oc3cc(S(=O)(=O)NCc4ccccc4)ccc32)c1 | 9%
CCOc1ccc(C2C(=O)N(C3CCCCCC3)CC(=O)N2CCc2ccc(OC)c(OC)c2)cc1OC (stereo unspecified) | -4%
CCOC(=O)Cn1c(=O)n(-c2ccc(Cl)cc2)c2nc(-c3ccc(Cl)cc3)nc(C(N)=O)c21 | -1%

Going on with the list.
SMILES | miR-21 FLuc
CCOc1ccccc1CNS(=O)(=O)c1ccc(-c2coc(C)n2)cc1 | 8%
COc1ccc(CCNC(=O)c2cnn(-c3ccc(F)cc3)c2C2CCN(C(=O)OC(C)(C)C)CC2)cc1OC | 8%
O=C(CCN1C(=O)c2ccccc2Sc2ncccc21)Nc1ccc(F)cc1F | -1%
COc1ccc(CCNC(=O)CCc2cn(Cc3ccc(C)cc3)c3ccccc23)cc1OC | 13%
NC(=O)C1(N2CCCCC2)CCN(C(=O)Nc2ccc(F)cc2)CC1 | -2%
Cc1ccc(C)c(N2CCN(C(=O)c3cc4c(=O)n(Cc5cccnc5)ccc4nc3C)CC2)c1 | 8%
CCc1cccc(-n2nnc(-c3nsc(NC(=O)c4ccc(C)cc4)n3)c2C)c1 | -4%
COc1ccc(Cl)cc1NC(=O)c1cn(C2CCCC2)c(=O)c2c1c1ccccc1n2C | -6%
Cn1cnc2c(=O)oc3ccc(S(=O)(=O)N4CCN(c5cccc(Cl)c5)CC4)cc3c21 | 0%
Cc1ccccc1CCNC(=O)C1CCN(c2nc3ccccc3nc2C(F)(F)F)CC1 | 7%
COc1ccccc1OCC(=O)NCC1(N(C)C)CCCCC1 | 1%
Cc1nc2cc(-c3ccccc3)nn2c(C)c1CCC(=O)N1CCN(c2ccc(F)cc2)CC1 | 27%
CCOC(=O)c1[nH]c2c(c1Cc1ccccc1OC)C(=O)CC(c1ccc(OCC)cc1)C2 (stereo unspecified) | 4%
CCCN1CCN(CCCNC(=O)Cn2nc(CC)n3c(cc4occc43)c2=O)CC1 | -7%
Cc1ccc(S(=O)(=O)N(CC(O)Cn2c3ccccc3c3ccccc32)c2cccc(C(=O)NCCO)c2)cc1 (stereo unspecified) | ?
COc1c(C)cccc1C(=O)Nc1cccc2ccc(C)nc12 | 29%
CN(Cc1ccccc1)C(=O)c1ccc(CSc2nc3cccnc3n2Cc2ccccc2F)cc1 | 8%
CCc1ccc(NC(=O)CSc2nc(-c3ccccc3)c(C#N)c(=O)[nH]2)cc1 | -1%
Cc1cc(Br)ccc1NC(=O)c1c(C)oc2ncnc(N3CCCCC3)c12 | 13%
CCOc1ccc(OCC)c(NC(=O)CCc2nc3cccnc3n2Cc2cccs2)c1 | 3%
O=C(O)CCc1ccc(-c2ccccc2)n1CC(=O)Nc1ccccc1C(F)(F)F | -3%
COC(=O)c1ccc(C2C(C(=O)Nc3ccccc3)=C(C)Nc3nc4ccccc4n32)cc1 (stereo unspecified) | -3%
Cc1ccc(-c2nnc(Nc3cccc(Cl)c3)c3ccccc23)cc1S(=O)(=O)N1CCOCC1 | -1%
CC(NC(=O)c1ccc2c(c1)sc1nc(-c3ccccc3)cn12)C12CC3CC(CC(C3)C1)C2 (stereo unspecified) | 2%
CCOc1ccc(NC(=O)Cn2nc3c(cc2=O)CC(C)CC3)cc1 (stereo unspecified) | 4%

Arranged by number of heavy atoms (largest number first): 13 of the compounds above
SMILES | miR-21 FLuc
Cc1cccc(N2CCN(C(=O)Cn3cnc4sc(C)c(S(=O)(=O)N5CCN(c6ncccn6)CC5)c4c3=O)CC2C)c1 (stereo unspecified) | 18%
Cc1ccc(S(=O)(=O)N(CC(O)Cn2c3ccccc3c3ccccc32)c2cccc(C(=O)NCCO)c2)cc1 (stereo unspecified) | ?
COc1ccc(-c2nc3ccccc3o2)cc1NC(=O)c1ccc(N2CCC(C)CC2)c([N+](=O)[O-])c1 | -52%
Cc1ccc(-c2nnc(Nc3cccc(Cl)c3)c3ccccc23)cc1S(=O)(=O)N1CCOCC1 | -1%
CCOc1ccc(CNS(=O)(=O)c2c(C(=O)N3CCC(C)CC3)c(C)n(C)c2C)cc1OC | -14%
COc1ccc(Cl)cc1NC(=O)c1cn(C2CCCC2)c(=O)c2c1c1ccccc1n2C | -6%
CCCN1CCN(CCCNC(=O)Cn2nc(CC)n3c(cc4occc43)c2=O)CC1 | -7%
O=C(CCN1C(=O)c2ccccc2Sc2ncccc21)Nc1ccc(F)cc1F | -1%
Cc1ccc2nc(CN3CCN(S(=O)(=O)c4ccc(C)c(C)c4)CC3)oc2c1 | 1%
COc1cc(Cl)c(S(=O)(=O)NCCc2c(C)[nH]c3c(C)cccc23)cc1Cl | -1%
CC(C)c1nn2c(=O)cc(COC(=O)c3ccc4c(c3)OCO4)nc2s1 | -7%
CCOc1ccc(NC(=O)Cn2nc3c(cc2=O)CC(C)CC3)cc1 (stereo unspecified) | 4%
COc1ccccc1OCC(=O)NCC1(N(C)C)CCCCC1 | 1%

New compounds follow:
SMILES | miR-21 FLuc
O=C(c1ccccc1)n1nc(-c2ccc(Cl)cc2)nc1NCc1ccco1 | -3%
Cc1ccc2c(CC(=O)Nc3ccc(S(=O)(=O)N4CCCCC4)cc3)coc2c1C | 3%
CCOc1ccc(S(=O)(=O)Nc2ccc3c(c2)CCCN3C(=O)c2cccs2)cc1 | 17%
Cc1ccc(Cl)cc1N1CCN(C(=O)C2CCN(S(=O)(=O)c3ccc4c(c3)oc(=O)n4C)CC2)CC1 | 20%
COc1cccc(N2CCN(C(=O)Cn3ncc4c(=O)oc5ccccc5c43)CC2)c1 | 0%
O=C(Nc1ccc2oc(-c3ccc(O)c(Br)c3)nc2c1)c1cc2ccccc2o1 | -13%
CC1=C(C(=O)OC2CCCC2)C(c2cccc(Cl)c2Cl)CC(=O)N1 (stereo unspecified) | 16%
CC1=C(C(=O)Nc2ccccc2Cl)C(c2cccs2)n2ncnc2N1 (stereo unspecified) | 2%
Cc1nc(-c2ccc(S(=O)(=O)Nc3cc(Cl)ccc3C)cc2)co1 | -2%
CCN(C(=O)c1cc(S(=O)(=O)N2CCOCC2)cn1C)c1ccc(OC)cc1 | 2%
COc1ccc(C)cc1NC(=O)C(NS(=O)(=O)c1cccs1)c1ccccc1 (stereo unspecified) | -22%
CCS(=O)(=O)c1cccc(C(=O)N2CCN(c3nc4c(C)ccc(Cl)c4s3)CC2)c1 | ?
CCCN1C(=O)C2(c3ccccc31)c1c(oc3ccccc3c1=O)C(=O)N2CCCOC(C)C (stereo unspecified) | 0%
COc1cccc(CNC(=O)Cn2c(SCC(=O)Nc3ccc(F)cc3)nc3ccccc32)c1 | 15%
CCOc1cc(/C=C(\C#N)C(=O)Nc2ccc(OC)cc2)ccc1OCc1cc(=O)n2nc(CC)sc2n1 | -1%
CC(C)(C)CC(=O)NCC(c1ccc2c(c1)OCO2)N1CCOCC1 (stereo unspecified) | -5%
O=C(CSc1cn(CCNC(=O)c2cccc(C(F)(F)F)c2)c2ccccc12)Nc1ccc2c(c1)OCCO2 | ?
CCc1ccc(NC(=O)CN2C(=O)C3CCCN3c3ccc(S(=O)(=O)N(CC)CC)cc32)cc1 (stereo unspecified) | -7%
Cc1ccc(Cn2c(C(=O)O)c(CNCCc3cccs3)c3ccc(C)cc32)cc1 | 5%
Cc1ccc(Cl)cc1N1CCN(C(=O)c2ccc3c(c2)N(Cc2ccccc2)CCS3)CC1 | -2%
Cc1ccc(NC(=O)Cn2cnc3c2c(=O)n(C)c(=O)n3C)cc1C | -4%
CCOc1cc(-c2nnc(SCC(=O)NC3CCCC3)nc2-c2ccc(OC)c(OCC)c2)ccc1OC | -4%
COc1ccc(CCN2C(=O)N(c3cccc(OC)c3)C(=O)C2CC(=O)Nc2ccccc2)cc1 (stereo unspecified) | ?
CCOC(=O)c1ccc(NC(=O)C(Cc2ccccc2)N2Cc3ccccc3C2=O)cc1 (stereo unspecified) | 4%
Cc1ccc(S(=O)(=O)NCCc2csc(-c3cccc(F)c3)n2)cc1 | 24%

The list continues:
SMILES | miR-21 FLuc
CCOC(=O)c1ccc(CN(Cc2ccc(F)cc2)S(=O)(=O)c2ccc(F)c(C(=O)Nc3cc(Cl)ccc3OC)c2)cc1 | -1%
COc1ccc(NC(=O)c2oc3ccccc3c2NC(=O)c2cc3ccccc3o2)c(OC)c1 | -2%
Cc1ccc2c(=O)cc(C(=O)N(Cc3ccc(C(C)(C)C)cc3)C3CCS(=O)(=O)C3)oc2c1 (stereo unspecified) | 0%
CC(C)OCCCNC(=O)Cc1ccc(NC(=O)N2CCCCc3ccccc32)cc1 | -3%
CCCOc1ccc(Oc2nc(NC)nc(N3CCOCC3)n2)nn1 | 0%
COc1cccc(Cn2c(-c3nonc3NC(C)=O)nc3ccccc32)c1 | 25%

Source: PubChem BioAssay
